FGF22 binding – binders of human FGF22 protein, primary screen, FGF22 synaptogenesis inhibitor project, biophysical, thermal shift, single point; Fibroblast growth factor 22 (Homo sapiens), Q9HCT0; recombinant FGF22 thermal shift, SYPRO orange fluorescence; percent of sucrose octasulfate shift, DMSO zero; calls only at 9.99 µM; hit rate 1.5% among 340,000; AID 651658, 2012;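 active means melting point raised past a set limit in the mean and every replicate; three in four hits are not shown here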
E coli growth – E. coli growth inhibition, primary screen, OD600. hit rate 0.21% among 330,000. Escherichia coli growth, 23 h; active compounds read low. OD600 absorbance (test concentration not listed). AID 1053175, 2014;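 active means OD600 absorbance below the run mean of sample wells minus 3.6 SD, in any replicate, cut at about 0.56 in these data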;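 further: stock transfer was 300 nL into about 60 µL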
UCH37 DUB inh – inhibitors of human UCH37 deubiquitinase, primary screen, biochemical, Ub-AMC cleavage, fluorescence. purified proteasome/UCH37. inhibition, % (concentration not given with the values). hit rate 0.33% among 330,000. AID 588478, 2011;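 active means mean of two replicates above 20%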;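 further: 0% = compound-free wells with enzyme and 100% = wells lacking proteasome; stock transfer was 100 nL into about 20 µL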
Target sequence (Q9Y5K5 whole entry, looked up): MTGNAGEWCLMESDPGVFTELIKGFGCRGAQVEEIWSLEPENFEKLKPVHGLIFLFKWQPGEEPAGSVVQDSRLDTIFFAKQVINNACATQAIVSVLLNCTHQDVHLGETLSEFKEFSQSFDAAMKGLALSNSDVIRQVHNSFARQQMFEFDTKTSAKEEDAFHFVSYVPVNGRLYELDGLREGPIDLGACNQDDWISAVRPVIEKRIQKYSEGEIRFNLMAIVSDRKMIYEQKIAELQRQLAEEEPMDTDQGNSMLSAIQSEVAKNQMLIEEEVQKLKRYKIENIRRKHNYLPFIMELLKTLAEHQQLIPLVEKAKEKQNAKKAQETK
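Material: human UCH37 enzyme supplied as purified proteasome complex / Amount: 0.15 nM proteasome as dispensed / Buffer or medium: pH 7.4 Tris-HCl (50 mM) with ovalbumin, ATP-MgCl2, DTT / Times: preincubation 30 min, reaction 25 min, room temperature / Technique: AMC fluorescence from Ub-AMC cleavage, excitation 355 nm, emission 460 nm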
ALR inh – inhibitors of human ALR sulfhydryl oxidase, primary screen, biochemical, H2O2 detection, HRP-luminol luminescence, single point. inhibition, % (concentration not given with the values). AID 485317, 2010. FAD-linked sulfhydryl oxidase ALR (Homo sapiens), P55789. hit rate 3.8% among 290,000. purified ALR, DTT oxidation;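 active means mean and each replicate at 75% or more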;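 further: stock transfer was 7.5 nL into about 7.5 µL; 0% = neutral wells and 100% = wells with inactivated enzyme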
Target sequence (P55789 whole entry, looked up): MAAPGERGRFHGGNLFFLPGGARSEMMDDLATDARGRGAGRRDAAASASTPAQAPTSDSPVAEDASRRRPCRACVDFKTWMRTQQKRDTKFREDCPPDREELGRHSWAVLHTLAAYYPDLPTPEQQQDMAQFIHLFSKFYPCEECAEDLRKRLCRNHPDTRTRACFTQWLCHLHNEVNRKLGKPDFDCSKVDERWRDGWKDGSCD
rRNA inh HTS – reduced GFP signal of wild-type E. coli, primary screen, bacterial rRNA inhibitor project, GFP/RFP fluorescence, OD600, single point; E. coli WT GFP vs humanized-ribosome RFP mutants, 24 h; active compounds read low; DMSO median 0, no signal -100; GFP signal change (wild-type ribosome), % (concentration not given with the values); AID 720706, 2013; hit rate 1.6% among 350,000;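 active means significant combined selectivity score with lowered wild-type GFP, culture density cut under 30%, mutant RFP and density less affected; inactive means any of these conditions unmet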; further: one replicate is shown; some compounds called inactive have numbers as strong as hits
B2AR ag – beta2AR agonists driving receptor internalization, primary screen, cell-based, FAP fluorogen, flow cytometry; AID 504454, 2011; response, % (test concentration not listed); Beta-2 adrenergic receptor (Homo sapiens), P07550; hit rate 0.43% among 340,000; Am2.2-beta2AR cells; reference of the scale not given here;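 active means response above a set limit, near 3 SD of response in nonfluorescent compounds, cut at about 42% in these data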;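 further: stock transfer was 100 nL into about 11 µL; a reference agonist was the positive control; negative values mostly stem from fluorescent compounds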
HNF4A DNA FP – change in binding of human HNF4A to DNA, primary screen, biochemical, fluorescence polarization, FITC-DNA; Hepatocyte nuclear factor 4-alpha (Homo sapiens), P41235; 1 h; activity change, % at 10 µM; hit rate 0.3% among 360,000; AID 1224865, 2016; in the data active means activity change above about 30%, passing the limit was not always enough;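 further: controls were the assay level and a saturating level of protein; the project sought stronger binding though the title names inhibitors; some compounds called inactive have numbers as strong as hits; positive values seem to mean higher polarization but the record does not say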
Target sequence (P41235 whole entry, looked up): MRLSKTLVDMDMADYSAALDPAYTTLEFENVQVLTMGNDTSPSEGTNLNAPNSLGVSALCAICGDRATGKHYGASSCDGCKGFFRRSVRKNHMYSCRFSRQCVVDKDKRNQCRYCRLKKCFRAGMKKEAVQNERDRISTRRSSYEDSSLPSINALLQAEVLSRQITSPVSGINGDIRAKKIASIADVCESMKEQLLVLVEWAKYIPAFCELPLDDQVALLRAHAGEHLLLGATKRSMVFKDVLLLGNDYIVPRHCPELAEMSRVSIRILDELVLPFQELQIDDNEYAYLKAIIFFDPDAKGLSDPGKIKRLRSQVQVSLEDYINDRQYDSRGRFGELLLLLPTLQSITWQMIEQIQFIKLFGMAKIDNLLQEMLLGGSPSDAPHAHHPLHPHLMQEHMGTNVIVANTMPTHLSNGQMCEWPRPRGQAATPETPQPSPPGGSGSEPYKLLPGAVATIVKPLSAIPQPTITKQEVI
rRNA inh HTS OD600 – also measured in rRNA inh HTS; calls as there; OD600 change, %; measured here: OD600 growth;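 optical density of the mix in the first replicate; 0 = DMSO median and -100 = no signal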
rRNA inh HTS RFP – further read-out of rRNA inh HTS, marked with its call; RFP signal change, %; measured here: RFP humanized mutant strains;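 first replicate; 0 = DMSO median and -100 = no signal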
Numbers without * were called inactive; i = inactive; nt = no result given. Some of the compounds tested; rates above refer to the full screens.

SMILES	FGF22 binding	E coli growth	UCH37 DUB inh	ALR inh	rRNA inh HTS	rRNA inh HTS OD600	rRNA inh HTS RFP	B2AR ag	HNF4A DNA FP
Cc1nonc1NC(=O)CSc1nc2ccccc2cc1C#N	i	0.71	-4.9	1	-9	-13	-5.6	-17	6.3
CCOC(=O)C(=Cc1ccc(N(C)C)cc1)C(=O)c1ccccc1	i	nt	nt	nt	-17	-13	-0.8	nt	5.3
CC(=O)c1c(C)oc2c1C(=O)c1ccccc1C2=O	i	0.64	8.4	-11	30	-3	1.8	0	7.2
Cc1ccc(NC(=O)COc2ccc(C(=O)NCCc3ccccc3)cc2)cc1	nt	0.7	1.7	-3	nt	nt	nt	nt	nt
C=C(C)c1cccc(C(C)(C)NC(=O)Nc2ccc(OC)nc2)c1	i	0.66	1.3	-1	7	2	1.1	8	-11
OCCCNc1ncnc2c1ncn2[C@H]1CN(Cc2ccc3c(c2)OCO3)C[C@@H](CO)O1	i	nt	nt	nt	0	9	-1.7	nt	3.4
O=C(Nc1ccccc1O)c1ccc(NC(=O)C2CC2)cc1	i	0.62	2.4	3	10	18	1.7	7	2.8
O=C(CSc1nc2ccccc2c(=O)n1-c1ccccc1)N1CCCC1	nt	0.73	0.1	0	nt	nt	nt	-11	1.1
Cc1cccc(C)c1OCC(=O)NNC(=S)NC(=O)C1CC1	i	0.73	4.8	15	-58	-78	-17	2	-1.4
CSCC[C@H](NC(=O)COc1ccc(Cl)cc1Cl)c1nc2ccccc2[nH]1	nt	0.7	0.4	-6	nt	nt	nt	-13	-3.3
O=[N+]([O-])c1ccc(OC(F)F)c(/C=N/n2cnnc2)c1	i	nt	nt	-6	13	4	-4.2	-7	-0.8
COc1ccc(C2/C(=C(/O)c3ccc4c(c3)CC(C)O4)C(=O)C(=O)N2CCN2CCOCC2)cc1OC (stereo not drawn)	i	0.69	10	nt	6	4	-2.3	-5	-1.3
Cc1cc(C)n2nc(SCc3cc(=O)oc4cc(O)ccc34)nc2n1	nt	0.71	-25	-2	nt	nt	nt	nt	nt
Cc1[nH]c2ccc(OCc3ccccc3)cc2c1CCN1C(=O)OC(C)(C)C1(C)O (stereo not drawn)	i	0.66	5.8	-5	1	8	0.2	6	3.4
COc1ccc(OC)c(S(=O)(=O)N2CCC(NC(=O)c3ccccc3)CC2)c1	i	0.69	0.5	nt	-3	4	1.2	-3	2.0
Cc1ccc(NS(=O)(=O)c2ccc(CCC(=O)N3CCOCC3)cc2)cc1	nt	0.77	1.3	-2	nt	nt	nt	0	-6.0
CCc1nc(Nc2ccc(F)cc2)c2oc3ccccc3c2n1	i	0.68	-56	nt	0	-1	-2.8	8	1.5
O=c1[nH]cc(S(=O)(=O)N2CCN(c3cccc(C(F)(F)F)c3)CC2)c(=O)[nH]1	i	0.62	-1.0	-16	14	7	-2.0	-5	2.0
COc1ccc(N(C(=O)c2ccco2)C(C(=O)NC2CCCCC2)c2cccs2)cc1OC (stereo not drawn)	nt	0.76	1.6	-31	nt	nt	nt	-2	-2.1
COc1ccc(CN2C(=O)C(C)Nc3ncnc(N4CCN(c5ccccn5)CC4)c32)cc1 (stereo not drawn)	nt	0.68	-7.5	2	5	14	8.3	-3	1.2
COc1ccc2nc(-c3ccc(N)cc3)[nH]c2c1	nt	0.73	-239	99*	nt	nt	nt	-4	-1.3
Cc1cccc(C)c1OCc1n[nH]c(=S)n1N	i	0.7	1.1	50	4	-3	0.8	2	-3.4
CC(=O)C1=C(O)C(=O)N(c2ccc(O)cc2)C1c1ccccc1F (stereo not drawn)	i	0.71	5.9	61	13	0	-2.0	1	2.8
Cc1cccc2cc(C#N)c(NCCNS(=O)(=O)c3ccccc3)nc12	i	0.69	-30	nt	13	3	-0.3	2	-1.9
CCOc1cc(NC(=S)NC)c(OCC)cc1NC(=O)c1cccs1	i	0.73	6.7	-9	0	-4	-6.5	-12	2.5

Remaining list, next part.
SMILES	FGF22 binding	E coli growth	UCH37 DUB inh	ALR inh	rRNA inh HTS	rRNA inh HTS OD600	rRNA inh HTS RFP	B2AR ag	HNF4A DNA FP
Cc1cc(C)nc(N2CCC(C(=O)NNC(=O)c3ccc(Cl)cc3)CC2)n1	i	0.69	-4.3	3	8	4	2.8	-2	-0.2
Nc1nnc(-c2ccco2)s1	nt	0.69	0.6	3	nt	nt	nt	1	2.3
Cc1ccc(CNC(=O)CCS(=O)(=O)c2ccc3c(c2)CC(C)N3C(=O)C2CC2)cc1 (stereo not drawn)	i	0.68	7.4	0	7	14	1.9	-22	1.0
Cc1cc2sc3ccc(C#CC4(O)CCCCC4)cc3c(=O)c2cc1C	i	0.72	2.0	-1	-1	7	0.8	11	-1.2
COC(=O)c1ccc(C)c(N(CCO)CCO)c1	nt	0.68	1.0	-1	nt	nt	nt	9	1.7
C=CCNC(=O)c1ccccc1NC(=O)Nc1ccccc1	i	0.66	-1.6	-3	-8	5	1.1	-7	-2.5
Cc1ccc(C)c(NC(=O)CN(C)C(=O)C2CCCC2)c1	i	0.66	0.9	-9	10	7	-3.1	0	-0.9
O=C(C1=NN[C@@H]2C(=O)N(c3ccccc3C(F)(F)F)C(=O)[C@H]12)c1ccc2ccccc2n1	nt	0.62	9.2	12	nt	nt	nt	-3	5.7
Cc1cc2oc3c(c(=O)c2cc1C)C(c1cccc(Br)c1)N(Cc1ccco1)C3=O (stereo not drawn)	nt	0.69	3.9	-9	nt	nt	nt	-3	-4.1
CC(C)OCC(O)CN1CCN(C(c2ccccc2)c2ccccc2)CC1 (stereo not drawn)	i	0.71	3.6	-13	7	-2	1.4	3	2.3
COc1cc(CCC(=O)NC2(C)CCS(=O)(=O)C2)cc(OC)c1OC (stereo not drawn)	i	0.68	-0.7	0	27	17	2.9	-5	2.7
CC(C)c1c(C(=O)N/N=C/c2ccc(-c3ccccc3)cc2)nnn1-c1nonc1N	i	nt	nt	-11	8	11	-0.9	-2	3.0
COc1cccc(OCCNCc2ccccc2)c1	i	0.65	0.5	nt	8	9	-0.8	4	-1.2
O=C(COC(=O)/C=C/c1ccc([N+](=O)[O-])cc1)Nc1ccc(F)cc1	i	0.68	0.3	-5	6	8	-0.3	15	-0.7
Cc1oc(-c2ccccc2F)nc1CS(=O)CC(=O)NC1CCCCC1 (stereo not drawn)	i	0.72	1.6	98*	-2	-1	-7.0	3	0.8
Cc1nc(-c2cccc3ccccc23)ccc1C(=O)O	nt	0.7	-9.2	16	nt	nt	nt	-5	-1.9
CCCNS(=O)(=O)c1cccc2cccnc12	i	0.73	7.4	14	5	7	4.9	4	3.8
CC(C)(C)OC(=O)N1CCC(Cc2cc(-c3cccc(Br)c3)no2)(C(=O)O)CC1	i	0.63	-2.5	4	-44	-47	-18	1	1.4
N=c1c(C(=O)NC2CCCCC2)cc2c(=O)n3ccccc3nc2n1Cc1ccccc1	i	0.67	i	3	2	5	-3.2	-8	-4.7
Fc1ccc(-n2c(Cc3cccs3)n[nH]c2=S)cc1Cl	i	0.69	1.9	12	-5	-6	-2.2	-2	3.1
O=C(OC(C(=O)NCc1cccs1)c1ccccc1F)c1ccco1 (stereo not drawn)	nt	0.7	1.7	nt	nt	nt	nt	1	0.4
COC(=O)c1ccccc1NC(=O)CSc1nc(N)cc(N)n1	i	0.75	5.1	-14	-2	-19	1.6	21	-4.4
CCCCNC(=O)CCC(=O)Nc1ccc2nc(N3CCC(C)CC3)cc(C)c2c1	i	0.64	-115	-13	-7	-7	1.4	-1	9.2
CC1C(=O)N(Cc2cn(CC3CCCCC3)nn2)CCS(=O)(=O)N1Cc1ccc(-c2cccc(CO)c2)cc1 (stereo not drawn)	i	nt	nt	nt	-3	-20	3.9	nt	2.1
CN1C(=O)CC(C(=O)O)SC1=Nc1ccc(F)cc1 (stereo not drawn)	i	0.71	1.6	-4	8	7	-0.1	-3	-5.3

Rewritten in markdown: 5 of the compounds above.
| molecule | FGF22 binding | E coli growth | UCH37 DUB inh | ALR inh | rRNA inh HTS | rRNA inh HTS OD600 | rRNA inh HTS RFP | B2AR ag | HNF4A DNA FP |
| --- | --- | --- | --- | --- | --- | --- | --- | --- | --- |
| N=c1c(C(=O)NC2CCCCC2)cc2c(=O)n3ccccc3nc2n1Cc1ccccc1 | i | 0.67 | i | 3 | 2 | 5 | -3.2 | -8 | -4.7 |
| Fc1ccc(-n2c(Cc3cccs3)n[nH]c2=S)cc1Cl | i | 0.69 | 1.9 | 12 | -5 | -6 | -2.2 | -2 | 3.1 |
| O=C(OC(C(=O)NCc1cccs1)c1ccccc1F)c1ccco1 (stereo not drawn) | nt | 0.7 | 1.7 | nt | nt | nt | nt | 1 | 0.4 |
| COC(=O)c1ccccc1NC(=O)CSc1nc(N)cc(N)n1 | i | 0.75 | 5.1 | -14 | -2 | -19 | 1.6 | 21 | -4.4 |
| CCCCNC(=O)CCC(=O)Nc1ccc2nc(N3CCC(C)CC3)cc(C)c2c1 | i | 0.64 | -115 | -13 | -7 | -7 | 1.4 | -1 | 9.2 |

Further entries:
SMILES	FGF22 binding	E coli growth	UCH37 DUB inh	ALR inh	rRNA inh HTS	rRNA inh HTS OD600	rRNA inh HTS RFP	B2AR ag	HNF4A DNA FP
CCOC(=O)/C=C/[C@H]1CCc2cccc(Cl)c2O1	i	nt	-0.1	2	4	10	-8.6	2	0.7
CC1CCCC(C)N1C(=O)COC(=O)c1cccs1 (stereo not drawn)	i	0.66	0.2	-12	11	8	-0.6	-6	-0.7
COc1ccc(C(=O)Nc2ccc3cn[nH]c3c2)c(OC)c1	i	0.69	1.5	-9	14	22	3.2	-5	0.9
CC(CC(=O)OCC(=O)Nc1ccc2[nH]c(=O)[nH]c2c1)c1ccccc1 (stereo not drawn)	i	0.63	-1.6	-9	3	4	-1.9	-3	3.7
COc1cc2c(cc1OC)/C(=C/C(=O)c1ccc(C)cc1)NCC2	i	0.69	-1.7	12	-13	-14	1.0	0	4.2
Cn1cc(Br)c(-c2cccc(N3C(=O)CC(C)(C)CC3=O)c2)n1	i	0.7	6.6	-4	-4	0	0.0	-4	2.3
CCOc1cc(C2C(C#N)=C(N)Oc3cc(N)ccc32)ccc1O (stereo not drawn)	i	0.62	-7.5	nt	12	6	5.1	15	8.2
Cc1cccc(C(=O)NCCC(=O)NCc2ccccc2F)c1	i	0.68	-1.7	nt	4	12	-1.4	-1	4.4
CCN(C(=O)COC(=O)c1cc(S(=O)(=O)Nc2c(C)n(C)n(-c3ccccc3)c2=O)ccc1Cl)C1CCCCC1	i	0.66	1.1	-2	-15	-31	2.7	3	-5.6
COc1ccc(OC)c(CNS(=O)(=O)c2c(C)nc3scc(C)n3c2=O)c1	i	0.72	2.0	-2	7	18	-1.2	3	8.1
CC(C)C(c1nnnn1Cc1cccs1)N1CCN(c2ccccc2)CC1 (stereo not drawn)	nt	0.74	-0.6	5	nt	nt	nt	2	3.3
Cn1c(SCC(=O)NCc2ccccc2)nnc1-c1ccc(NC(=O)CCc2ccccc2)cc1	nt	0.77	1.4	0	nt	nt	nt	-3	0.0
CCn1c(=O)cc(OCC(=O)Nc2cccnc2)c2ccccc21	nt	0.72	2.4	-13	nt	nt	nt	3	4.0
O=C(NCCCN1CCc2ccccc2C1)Nc1ccc(Br)cc1	nt	0.59	1.7	-2	nt	nt	nt	15	-0.9
O=C(C1CCCN(S(=O)(=O)c2ccc(Br)s2)C1)N1CCN(c2ccccc2)CC1 (stereo not drawn)	i	0.71	-1.5	-1	-14	-6	2.0	-10	3.0

Assay outcomes as filed in PubChem BioAssay.
